Rango-impB inh: Rango-importin beta binding inhibition; Q14974; Rango CFP/YFP FRET sensor + importin beta, 45 min; Potency, µM (series often up to 92.2 µM), inactives show top-dose inhibition of complex formation; 0.031% of 340,000 active; AID 540263; active = rising FRET ratio curve, often small or poorly fitted; inconclusive = mostly compound fluorescence or quenching in the first reads; inactive = flat curves in all reads;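 further: potency means the concentration at half of the fitted maximal effect; 0% = DMSO wells and 100% = buffer wells lacking importin beta; nearly all actives have a fitted effect of over 15% in size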
Target sequence (Q14974 whole entry, looked up): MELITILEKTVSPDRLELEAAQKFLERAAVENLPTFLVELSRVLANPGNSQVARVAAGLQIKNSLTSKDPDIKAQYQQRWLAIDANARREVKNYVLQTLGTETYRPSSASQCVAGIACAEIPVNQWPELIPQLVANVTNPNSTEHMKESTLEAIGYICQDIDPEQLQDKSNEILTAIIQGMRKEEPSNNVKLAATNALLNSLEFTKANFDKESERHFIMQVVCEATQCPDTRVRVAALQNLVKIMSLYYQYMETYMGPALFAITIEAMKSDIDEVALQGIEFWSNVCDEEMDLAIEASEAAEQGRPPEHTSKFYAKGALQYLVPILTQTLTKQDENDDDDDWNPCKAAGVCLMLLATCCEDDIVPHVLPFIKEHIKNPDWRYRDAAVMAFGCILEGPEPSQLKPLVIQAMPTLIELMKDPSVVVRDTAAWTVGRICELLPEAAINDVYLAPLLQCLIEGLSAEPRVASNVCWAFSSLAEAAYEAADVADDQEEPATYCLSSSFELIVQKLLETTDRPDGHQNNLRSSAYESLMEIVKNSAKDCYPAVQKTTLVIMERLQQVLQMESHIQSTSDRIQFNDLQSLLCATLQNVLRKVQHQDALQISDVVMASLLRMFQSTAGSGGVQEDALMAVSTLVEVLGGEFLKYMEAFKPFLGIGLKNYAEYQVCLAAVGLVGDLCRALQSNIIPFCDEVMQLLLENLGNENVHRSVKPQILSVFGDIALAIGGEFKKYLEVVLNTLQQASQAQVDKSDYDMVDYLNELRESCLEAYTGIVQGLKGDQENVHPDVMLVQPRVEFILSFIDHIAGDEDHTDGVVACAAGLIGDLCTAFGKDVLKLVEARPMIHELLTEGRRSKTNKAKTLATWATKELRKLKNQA
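FRET biosensor (snurportin 1 IBB flanked by EYFP and cerulean), 50 nM, with compound 5 min, then 0.125 microM importin beta in PBS, 1 mM DTT, 0.02% Tween-20, 0.1% BSA. CFP/YFP ratio read after 45 min at room temperature; pre-read flags interference.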
miR-21 reporter: miR-21 reporter, rising signal; HeLa miR-21 FLuc reporter, luciferase, 48 h; 340,000 tested, under 10 active; AID 2288; Potency, µM (highest dose often 38.3 µM), inactives show at the highest dose reporter change, positive = more light; active = well fitted rising curve with a large enough effect; inconclusive = small, poorly fitted or top-dose-only effect; inactive = no such curve, though single readings can be large or run the other way;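 further: % of control where 0% means no effect; miR-21 action dims this reporter so a rising signal means less miR-21 action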
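HeLa cells endogenously expressing miR-21, stably carrying CMV-driven firefly luciferase with a downstream miR-21 binding site, 2000 cells/well. Titrations up to approximately 40 uM, 48 hours; luciferase luminescence read.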
GLA inh pH 4.5: inhibitors of human alpha-galactosidase A at pH 4.5; P06280; purified enzyme, 4-MU-alpha-Gal fluorescence, pH 4.5; activity change, negative = inhibition, % at 105 µM; 230,000 tested, under 10 active; inconclusive = small, poorly fitted or top-dose-only inhibition, or a rising curve; inactive = flat fitted curve, though single readings scatter; no compound was filed as active;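 further: 0% = full activity with enzyme and -100% = basal without enzyme; dose as in the result columns while the protocol names 77 µM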
Rango dissoc inh: inhibition of RanGTP-driven Rango-importin beta dissociation; Potency, µM (highest dose often 46.1 µM), for the others: at the top dose activity change, negative = inhibition; Biochemical FRET Rango-importin beta, RanGTP-induced dissociation; 0.071% of 340,000 active; O95149+P62826; active means falling FRET ratio curve, often poorly fitted, with flat reads before Ran was added; inconclusive means other falling curves, or compound fluorescence or quenching; inactive means flat or rising ratio curve;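 further: potency means the concentration at half of the fitted maximal effect; % of control where 0% means no effect; nearly all actives have a fitted effect of over 45% in size; -100% = wells without RanGTP and RCC1; the record marks most hits as doubtful in a second field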
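Compounds preincubate 5 min with complex of recombinant Rango and importin beta in PBS with 1 mM DTT. Ran (0.6 uM) loaded with 2 mM GTP plus 0.2 uM RCC1 starts dissociation; FRET is recorded 45 min later.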
The depositor's hits bear a star; ? = inconclusive; . = no result given; & = joins results of further samples. An excerpt, so the mix of outcomes need not match the whole.

Structure	Rango dissoc inh	Rango-impB inh	miR-21 reporter	GLA inh pH 4.5
CNc1nc(N)c(C(=O)C23CC4CC(CC(C4)C2)C3)s1	9%	-0.5%	-13%	4
CCC(=NC(C)c1ccccc1)c1c(O)n(C)c(=O)n(C)c1=O (centres undefined)	-1%	5.8%	17%	4
CCCCC(=O)OCC(=O)c1cc(C)n(-c2c(C)n(C)n(-c3ccccc3)c2=O)c1C	-12%	-3.3%	-1%	2
O=c1nc2n(c3ccc(Br)cc13)CCS2	3%	-2.2%	-18%	-2
CS(=O)(=O)N1CCCC(C(=O)NCc2ccccn2)C1 (centres undefined)	15%	-0.8%	0%	0
CC1(C)C2CCC1(CS(=O)(=O)Nc1ccccc1)C(=O)C2 (centres undefined)	0%	-0.9%	-1%	0
COCCn1cnnc1SCC(=O)Nc1ccccc1C(=O)Nc1ccc2c(c1)OCO2	23%	1.5%	-31%	3
COc1cccc2c1N1C(=O)c3c(C(=O)O)cccc3C1CC2(C)C (centres undefined)	6%	-0.2%	1%	-4
CCOc1ccc(NC(C)=O)cc1[N+](=O)[O-]	-11%	-0.1%	-6%	-12
CC(OC(=O)Cc1ccccc1F)C(=O)Nc1ccc(Cl)cn1 (centres undefined)	4%	-0.5%	.	.
Cc1ccc2c(C(=O)CNc3nncs3)c(C)[nH]c2c1	-16%	0.5%	-1%	5
CCOC(=O)C(C)Sc1nnc(Cn2c(=O)sc3ccccc32)n1-c1ccccc1 (centres undefined)	?	5.1%	-6%	0
CC1=NN(c2ccccc2)C(=O)C1(C)C	6%	2.6%	-2%	8
O=S(=O)(c1ccc2c(c1)CCC2)N1CCNCC1	2%	5.7%	.	.
Cc1cccc2nc(-c3cccnc3)c(NCCC(C)C)n12	-8%	-2.0%	-15%	-7
COc1ccc(Cc2cc(-c3ccc(F)cc3)n[nH]c2=O)cc1	13%	-2.4%	-22%	0
O=C(Nc1cccnc1Oc1ncnc2cc(Cl)ccc12)c1ccc(F)cc1	-18%	-1.2%	-4%	3
CC(C)NS(=O)(=O)c1ccc(N2C(=O)c3ccccc3C2=O)cc1	-5%	0.2%	0%	4
CCCCCOC(=O)Nc1nnc(CCC)s1	7%	-1.0%	-16%	1
COc1ccccc1C(=O)Nc1cccc(S(=O)(=O)N2CCCC2)c1	?	8.5%	1%	2
O=Cc1c(C(=O)O)n(CC(=O)O)c2ccccc12	-9%	2.0%	-3%	-3
O=C(NC1CC1)[C@@H]1CSC2c3ccccc3C(=O)N21 (some centres undefined)	-11%	-3.9%	-3%	.
CCN(C(=O)CSc1cc(-c2ccccc2)c2ccc(OC)cc2n1)C1CCS(=O)(=O)C1 (centres undefined)	-1%	3.9%	1%	-5
COc1ccccc1N(CC(=O)NCCc1ccccc1)C(=O)CCC(=O)Nc1ccccn1	18%	1.1%	1%	.
COCC(=O)Nc1nnc(SCC(=O)N2C(C)CCCC2C)s1 (centres undefined)	-9%	-1.1%	5%	.
COc1ccc(/C=C/c2c([N+](=O)[O-])c(=O)n(C)c(=O)n2C)cc1O	2%	-4.9%	15%	5
Cc1ccccc1C(=O)Nc1nc(SCc2ccc(Cl)cc2)n[nH]1	15%	0.6%	-18%	6
O=C(CSc1nccn1-c1ccccc1)Nc1ccc2c(c1)OCO2	-12%	-2.9%	-36%	1
c1ccc2c(N3CCCC3)nc(-c3ccncc3)nc2c1	1%	0.1%	3%	-4
Cc1cc(Cl)ccc1OC(C)C(=O)N1CCCN(C(=O)C(C)Oc2ccc(Cl)cc2C)CC1 (centres undefined)	1%	-0.8%	25%	-5
COC(=O)/C=C/c1ccsc1NC(C)=O	-9%	-2.7%	-2%	6
COc1ccc(/C=C2\SC(=O)N(CC(=O)NN3CCN(C)CC3)C2=O)cc1OC	-14%	0.5%	-3%	-1
CCC(C)NC(=O)CO/N=C/c1ccc(C(=O)OC)cc1 (centres undefined)	13%	-3.9%	0%	2
COCCn1c(C)cc(C(=O)CSc2nc3nc(C)cc(C)n3n2)c1C	24%	3.3%	-8%	1
CN(C)c1ccc(-c2nc3ccccn3c2/N=C/c2ccc(Br)cc2)cc1	-14%	?	-33%	-14
CC1CCC(NC(=O)Cn2ncc3ccccc32)CC1 (centres undefined)	9%	0.6%	-39%	8
O=C(/C=C/c1ccc2ccccc2n1)c1cc(Cl)ccc1O	0%	?	-58%	-8
OCCNC(=S)Nc1ccc(Cl)c(Cl)c1	-8%	-0.1%	2%	-2
COCc1c(C(=O)OCC(=O)Nc2ccc(OC(F)F)cc2)oc2ccccc12	-16%	-0.2%	.	.
COc1ccc(/C=C2\NC(=S)N(CC3CCCO3)C2=O)c(OC)c1 (centres undefined)	?	?	-35%	-12

Reprinted at random: 3 compounds from above.
Structure	Rango dissoc inh	Rango-impB inh	miR-21 reporter	GLA inh pH 4.5
O=C(NC1CC1)[C@@H]1CSC2c3ccccc3C(=O)N21 (some centres undefined)	-11%	-3.9%	-3%	.
CN(C)c1ccc(-c2nc3ccccn3c2/N=C/c2ccc(Br)cc2)cc1	-14%	?	-33%	-14
COc1ccc(/C=C/c2c([N+](=O)[O-])c(=O)n(C)c(=O)n2C)cc1O	2%	-4.9%	15%	5

(continued)
Structure	Rango dissoc inh	Rango-impB inh	miR-21 reporter	GLA inh pH 4.5
CC(OC(=O)c1cccc(-n2cnnn2)c1)C(=O)Nc1cccc(Cl)c1 (centres undefined)	8%	2.2%	.	.
Cc1ccc(NC(=O)CCn2cnc3ccccc3c2=O)c(C)c1	0%	2.8%	-4%	2
CCOC(=O)Nc1ccc(OC)c([N+](=O)[O-])c1	2%	1.0%	-17%	-20
CC(C)(C)NC(=O)CN1CCC(NC(=O)C23CC4CC(CC(C4)C2)C3)CC1	10%	3.2%	1%	3
CCCOc1cccc(-c2nnc(N)s2)c1	4%	4.7%	-39%	-1
CCOC(=O)c1c(NC(=O)CSc2nnc(N)s2)sc(C)c1-c1ccc(C)cc1	20%	-1.7%	23%	-5
CCCCCCCNC(=O)c1ccc(N2CCC3(CC2)OCCO3)c([N+](=O)[O-])c1	15%	-4.7%	0%	-1
c1ccc2sc(-c3ccncc3)nc2c1	-4%	-0.4%	-70%	-5
COc1ccc(S(=O)(=O)N2CCN(C(=S)NCC3CCCO3)CC2)cc1OC (centres undefined)	-5%	-1.9%	1%	.
O=c1cc(N2CCOCC2)[nH]c(=O)n1Cc1ccc(F)cc1	-14%	6.6%	-1%	-4
Cc1cccc(CN2CCN(Cc3ccc(-n4cccn4)cc3)CC2CCO)n1 (centres undefined)	-12%	-3.0%	-3%	-9
CSc1c(CC(=O)Nc2ccccc2C(F)(F)F)n(Cc2ccccc2)c2ccccc12	-3%	-2.7%	-7%	0
CCC(=O)c1c[nH]c(C(=O)N2CCN(c3ccccc3)CC2)c1	0%	5.8%	-7%	-11
CCOC(=O)CN1C(=O)NC(C)(c2ccc(OC(F)F)cc2)C1=O (centres undefined)	0%	0.8%	1%	13
Nc1nnnn1/N=C/c1cccc(Oc2ccccc2)c1	-13%	-0.8%	-19%	-1
COC(=O)c1ccc(OS(=O)(=O)N(C)C)cc1	0%	-1.2%	-54%	-3
C/C(CC(=O)Nc1cccc2c1CCCC2)=N\NC(=O)c1ccccc1N	-19%	1.9%	-42%	4
O=C(Cc1ccccc1)Nc1ccc(C(=O)O)cc1	1%	3.6%	-1%	7
CCOC(=O)N1CCN(C(=O)c2ccc(N(Cc3ccc(C)cc3)S(C)(=O)=O)cc2)CC1	2%	0.9%	1%	5
CN(C)CCCNc1cc(C(C)(C)C)nc2c(-c3ccc(Cl)cc3)cnn12	3%	1.9%	?	11
COc1ccc(C2=CC(=O)OC(C)(c3ccccc3)O2)cc1 (centres undefined)	3%	-1.0%	5%	15
Cc1cc(O)ccc1N/C=C/c1onc(C)c1[N+](=O)[O-]	-6%	-1.4%	-69%	1
Cn1cccc1C(=O)Nc1ccc(N2CCOCC2)cc1	1%	-4.5%	.	.
CC(C)(Oc1ccc(Cl)cc1)C(=O)OCC(=O)NCCc1ccccc1	6%	-4.1%	7%	.
CN(C)c1cccc(C(=O)Nc2ccc3nc4n(c(=O)c3c2)CCCCC4)c1	10%	-0.4%	-18%	-12
COc1ccc(CC(=O)O/N=C(\N)Cc2cccc3ccccc23)cc1OC	9%	8.0%	-18%	-4
Cc1ccc(N(Cc2cc3ccccc3[nH]c2=O)S(=O)(=O)c2ccccc2)cc1	18%	3.5%	-2%	-14
CN(C(=O)CN(CCO)CC(=O)N(C)C(C)(C)Cc1ccccc1)C(C)(C)Cc1ccccc1	2%	1.6%	.	2&-3
CSc1nc(N2CCOCC2)c2c3c(sc2n1)CCCC3	-26%	-0.2%	-21%	-10
CCN(C(=O)C1CCN(S(=O)(=O)c2cccc3nonc23)CC1)c1ccccc1	-1%	-0.8%	-4%	2
COC(=O)c1ccc(CN2CCc3ccccc32)cc1	0%	3.7%	2%	.
CC(=O)c1cccc(Nc2cc(C)nc3c(C)cc(C)cc23)c1	1%	-0.6%	16%	-2
O=C(NC(N1CCOCC1)C(Cl)(Cl)Cl)c1ccc(Br)cc1 (centres undefined)	-20%	?	3%	-1
O=S(=O)(NCc1ccccc1Br)c1cccs1	-14%	2.3%	-18%	1
Cc1ccc(OS(=O)(=O)c2ccc(-c3csc(C)n3)s2)c(C)c1	1%	-3.6%	0%	-1
C=CCN1C(=O)NC(c2ccccc2)(C(F)(F)F)S/C1=C(\C#N)c1nnc(N2CCOCC2)n1-c1ccccc1 (centres undefined)	1%	1.6%	-2%	1
C[C@H](NC(=O)c1[nH]cnc1C(=O)Nc1cccc(Cl)c1)c1ccccc1	-2%	0.3%	.	.
COCCNCc1ccc(C(C)C)cc1	8%	0.4%	2%	-3
Cc1ccc(CN(C)C(=O)c2cc(COc3ccc(F)cc3Cl)on2)o1	2%	1.6%	-37%	-4
CCN1C[C@@H]2[C@@H]3C(=O)N(Cc4ccccc4)C(=O)[C@@H]3[C@](Cc3ccccc3)(C1=O)N2C(=O)c1ccc(Br)cc1	-8%	-0.1%	.	.
O=C(C1=C[C@@H](c2ccc(Br)cc2)C[C@@H](OCc2ccc(CO)cc2)O1)N1CCN(Cc2ccccc2)CC1	-13%	?	?	-2
COc1ccc(-c2oc(=O)c3cc(OC)c(OC)cc3c2-c2ccc3c(c2)OCO3)cc1	18%	0.1%	.	.
Cc1ccc(-c2csc(NC(=O)Cn3[nH]c(=O)c4ccccc4c3=O)n2)cc1	-12%	6.7%	-34%	-9
CCCn1cc(NC(=O)c2cc3n(n2)C(C(F)(F)F)CC(c2ccccc2)N3)cn1 (centres undefined)	13%	4.8%	-6%	-5
COc1ccc2cc(S(=O)(=O)N3CCCCCC3)ccc2c1	4%	0.1%	-15%	-10
CCCC[C@@H]1C[C@H]1[C@@H](NC(=O)c1cccs1)c1ccc(Cl)cc1	-6%	3.9%	14%	-7

Some of the entries so far, with the structure last.
Rango dissoc inh	Rango-impB inh	miR-21 reporter	GLA inh pH 4.5	mol
-12%	6.7%	-34%	-9	Cc1ccc(-c2csc(NC(=O)Cn3[nH]c(=O)c4ccccc4c3=O)n2)cc1
-6%	3.9%	14%	-7	CCCC[C@@H]1C[C@H]1[C@@H](NC(=O)c1cccs1)c1ccc(Cl)cc1
13%	4.8%	-6%	-5	CCCn1cc(NC(=O)c2cc3n(n2)C(C(F)(F)F)CC(c2ccccc2)N3)cn1 (centres undefined)

In another format: entries from further up
Rango dissoc inh | Rango-impB inh | miR-21 reporter | GLA inh pH 4.5 | Compound
8% | 2.2% | . | . | CC(OC(=O)c1cccc(-n2cnnn2)c1)C(=O)Nc1cccc(Cl)c1 (centres undefined)
-11% | -3.9% | -3% | . | O=C(NC1CC1)[C@@H]1CSC2c3ccccc3C(=O)N21 (some centres undefined)
